VDR inh – inhibitors of human vitamin D receptor; Potency, µM, for the others: max response, negative = inhibition, usual class: inhibitors; P11473; 400,000 compounds, 0.93% hits; AID 504847; VDR-SRC2-3 peptide fluorescence polarization, 2 h; active = well fitted inhibition curve with a large enough effect; inconclusive = small, poorly fitted or top-dose-only effect, or another doubt; inactive = no such curve, though single readings can be large or run the other way; also: series mostly up to about 120 µM
Target sequence (P11473 whole entry, looked up): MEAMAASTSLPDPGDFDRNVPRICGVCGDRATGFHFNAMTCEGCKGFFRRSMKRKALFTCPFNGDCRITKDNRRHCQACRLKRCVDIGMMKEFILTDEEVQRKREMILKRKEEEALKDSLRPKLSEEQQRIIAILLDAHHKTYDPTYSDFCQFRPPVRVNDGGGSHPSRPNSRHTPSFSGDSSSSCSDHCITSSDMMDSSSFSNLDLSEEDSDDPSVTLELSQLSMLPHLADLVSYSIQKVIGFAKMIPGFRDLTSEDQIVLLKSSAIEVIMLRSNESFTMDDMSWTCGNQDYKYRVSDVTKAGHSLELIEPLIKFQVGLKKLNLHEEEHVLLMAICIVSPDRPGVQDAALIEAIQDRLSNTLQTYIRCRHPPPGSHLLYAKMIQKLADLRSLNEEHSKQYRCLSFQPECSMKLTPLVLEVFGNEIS
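After 23 nl compound addition and a short centrifugation, plates sat for 2 hours at ambient temperature; polarization of fluorescence then indicated loss of VDR binding to peptide SRC2-3.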
An asterisk follows results filed as active; u = inconclusive; [ ] = dose if it differs, or a comment. % is scaled to controls: 0 for no effect and ±100 for the full control effect; potency is read from the fitted curve at half-maximal effect.

VDR inh,canonical_smiles
-2.7%,CCOc1cc(/C=C2\SC(N)=NC2=O)ccc1O
-8.0%,O=C(Nc1ccon1)Nc1ccc(Cl)cc1Cl
-26.7%,CC1CCN(C(=O)CSc2nc(-c3ccc(F)cc3)cc(C(F)(F)F)n2)CC1
5.3%,C/C(=N/OCC(=O)NCCCCCCNC(=O)CO/N=C(/C)c1cccs1)c1cccs1
-0.7%,O=C(CSC1=NCCS1)NC1CCCCC1
-5.9%,Cc1ccc(C(=O)Nc2ncc(C)s2)s1
-0.9%,CCOC(=O)CCc1c(C)c2ccc(OC(C)C(=O)OCC)c(C)c2oc1=O (centres undefined)
-3.2%,Cc1cccn2c(=O)c(C(=O)NCCc3ccccc3)c(O)nc12
-5.0%,CCc1c(C#N)c(=O)[nH]c(=O)n1-c1ccccc1
-13.0%,O=c1[nH]c(C2CCN(S(=O)(=O)c3ccc(C(F)(F)F)cc3)CC2)nc2c1nnn2Cc1ccccc1

Next records follow.
VDR inh,canonical_smiles
-17.1%,CC(NC(=O)CCCCCCN1C(=O)c2ccccc2C1=O)c1ccc2c(c1)CCCC2 (centres undefined)
-13.4%,C[C@@]12C(=O)N(CC3CCCO3)CC(=O)N1[C@H]1c3cc(Cl)ccc3OC[C@@H]1[C@@H]2c1ccccc1 (some centres undefined)
-12.6%,CSc1ccc(NC(=O)Nc2cccn(Cc3ccccc3F)c2=O)cc1
-14.2%,CN(C)C(CNC(=O)c1cccs1)c1ccco1 (centres undefined)
-3.0%,CCOC(=O)C1CCCN(C(=O)c2c(-c3ccccc3Cl)noc2C)C1 (centres undefined)
3.5%,Cn1c(N)c(C(=O)CSc2n[nH]c(N)n2)c(=O)n(C)c1=O
-7.7%,CCCc1nc(N2CCCC2)c(C#N)c2c1CCCC2
-1.2%,O=C(Nc1sc2c(c1C(=O)NCc1ccco1)CCCC2)c1cc(=O)c2ccccc2o1
39.8µM*,O=S(=O)(Cc1ccccc1)N(O)c1ccccc1
-1.7%,CC1CN(C(=O)Nc2ccc(C(=O)NCCc3ccc(Cl)cc3)cc2)c2ccccc2S1 (centres undefined)

Following part
VDR inh,canonical_smiles
21.5%,O=C(CO/N=C/c1ccccc1O)NNC(=O)c1ccccc1Cl
13.8%,CCOC(=O)c1ccc(CNC(=O)c2n[nH]c(=O)c3ccccc23)o1
-12.3%,Cc1ccc(S(=O)(=O)Cc2ccc(C(=O)N3CCCC3)o2)cc1
-23.6%,CC(C)OC(=O)Nc1ccc(Oc2c(F)c(F)c(F)c(F)c2F)cc1
-13.7%,Cc1ccc(NC(=O)C(C)OC(=O)c2ccc(NC(=O)CC#N)cc2)cc1S(=O)(=O)N1CCOCC1 (centres undefined)
1.2%,Cc1noc(C)c1CSc1nnc2cc(C)c3ccccc3n12
18.0%,O=C(Nc1c(Cl)cccc1Cl)c1cc(-c2ccco2)on1
13.9%,CC(=O)Nc1cc(C(=O)NCc2ccccc2Cl)ccc1Sc1ccc(F)cc1
13.3%,Cn1cc(Br)c(C(=O)NC(=S)Nc2ccc(S(N)(=O)=O)cc2)n1
-22.9%,NC1=NC(=O)C(Cc2cccc(Cl)c2Cl)S1 (centres undefined)

The results go on.
VDR inh,canonical_smiles
-1.3%,Cc1ccc(NC(=O)Cc2nnc(SCC(=O)c3ccc(Br)cc3)n2C)cc1
-7.6%,COc1cccc(C(=O)NC2=NCCS2)c1
0.2%,Cc1ccc2c(c1)cc(CN(Cc1ccc3c(c1)OCO3)C(=O)c1cnccn1)c1nnnn12
-20.0%,Cc1cc(NC(=O)/C=C/c2ccc(Br)cc2)no1
8.6%,Cc1cccc(N(C(=O)Cn2nnc3ccccc32)C(C(=O)NC(C)(C)C)c2ccsc2)c1C (centres undefined)
-10.1%,Cc1ccc2[nH]cc(S(=O)(=O)c3ccc(F)cc3)c(=O)c2c1
-20.3%,COC(=O)c1ccc(C(=O)OC)c(NC(=O)C(C)(C)C)c1
-6.0%,CCc1ccc(S(=O)(=O)c2nnn(-c3cccc(C)c3)c2N)cc1
-12.6%,COc1ccc(N2CCN(C(=O)c3cccc(N4C(=O)C5C6C=CC(C6)C5C4=O)c3)CC2)cc1 (centres undefined)
-18.8%,Cc1ccc(NC(=O)CSc2nc(C)c(C)c(C)n2)c([N+](=O)[O-])c1

More results follow:
VDR inh,canonical_smiles
-5.1%,O=C(Cn1nc(Cc2cccnc2)c2ccccc2c1=O)NCC1CCCO1 (centres undefined)
12.0%,Cc1nc2ccccc2n1CCCOc1ccccc1
0.6%,COc1cccc(OCC(O)CN2CCN(CCN3C(=O)c4cccc5cccc(c45)C3=O)CC2)c1 (centres undefined)
16.4%,O=C(CC1C(=O)NCCN1CC1CCCCC1)NCCc1ccc(F)cc1 (centres undefined)
-0.3%,CCOP(=O)(OCC)C(Nc1cccc(C(F)(F)F)c1)c1ccc(F)cc1 (centres undefined)
-17.5%,CCOC(=O)C1CN(S(=O)(=O)c2ccc(C)cc2)c2ccccc2O1 (centres undefined)
3.2%,CCOC(=O)CCCCC(=O)c1[nH]c(=O)[nH]c1Cn1ccnc1
u,C/C=C(\C)C(=O)OC1[C@H](OC(C)=O)C2(CO)C(CC1(C)C)C1=CCC3C4(C)CCC(O[C@@H]5O[C@H](C(=O)O)[C@@H](O[C@@H]6O[C@H](CO)[C@@H](O)[C@H](O)[C@H]6O)[C@H](O)[C@H]5O[C@H]5O[C@H](CO)[C@@H](O)[C@H](O)[C@H]5O)[C@](C)(CO)C4CCC3(C)[C@]1(C)C[C@H]2O (some centres undefined)
3.3%,Cc1ccc(NC(=O)c2ccc(=O)n(Cc3ccccc3C)c2)c(C)c1
u,CCNC(=S)N(Cc1ccco1)Cc1cc2cc(OCC)ccc2[nH]c1=O

More results follow:
VDR inh,canonical_smiles
10.4%,Fc1cccc(-c2cc3nc4c(c(NCc5ccco5)n3n2)CCCC4)c1
7.8%,COc1ccccc1C(=O)Nc1ccc(C(=O)N2CCCCC2)cc1
-3.4%,Nc1nc(C23CC4CC(CC(Cl)(C4)C2)C3)cs1
4.4%,Cn1c(C(=O)NCC2CCCO2)cc2c(=O)n(C)c3ccccc3c21 (centres undefined)
-3.4%,O=c1oc2ccccc2c(O)c1CN1CCCCC1
-7.4%,CC(C)(C)c1cc2ncnc(N3CCCCC3)c2s1
7.2%,CC1CCN(S(=O)(=O)c2ccc3c(c2)c(=O)c(C(=O)NC2CCCC2)cn3C)CC1
11.6%,COC(=O)CN1C(=S)N(Cc2ccccc2)C(=O)C1CC(=O)Nc1ccc(Br)cc1 (centres undefined)
-13.9%,Cc1ccc(NC(=O)C2CCN(S(=O)(=O)c3ccc4c(c3)oc(=O)n4C)CC2)cc1
-5.7%,CCc1ccc(NC(=O)CC(NCc2cccnc2)C(=O)O)cc1 (centres undefined)

Molecules shown so far that contain a CF3 group, in the order listed:
VDR inh,canonical_smiles
-26.7%,CC1CCN(C(=O)CSc2nc(-c3ccc(F)cc3)cc(C(F)(F)F)n2)CC1
-13.0%,O=c1[nH]c(C2CCN(S(=O)(=O)c3ccc(C(F)(F)F)cc3)CC2)nc2c1nnn2Cc1ccccc1
-0.3%,CCOP(=O)(OCC)C(Nc1cccc(C(F)(F)F)c1)c1ccc(F)cc1 (centres undefined)

The listing continues:
VDR inh,canonical_smiles
18.9%,CN(CC(=O)Nc1ccc(F)cc1)C(=O)CSc1nncs1
4.3%,CC(C)(C)C1CCC2(CC1)C(C#N)=C(SCC(=O)Nc1ccccc1)NC(=O)C2C#N (centres undefined)
126.2%[activator],Cc1nc2ccccc2c(=O)n1NC(=O)Cc1ccc([N+](=O)[O-])cc1
-2.5%,O=C(N/N=C\c1cc(Br)ccc1O)c1ccc(S(=O)(=O)N2CCCCC2)cc1
-11.5%,C=C(C)c1cccc(C(C)(C)NC(=O)NC2CCN(Cc3ccccc3)CC2)c1
-13.4%,O=C(CSc1nc(=O)n2cc(Cl)ccc2n1)Nc1cccc2ccccc12
-16.9%,COc1ccc(NC(=O)CC2C(=O)N(c3cccc(OC)c3)C(=O)N2CCc2cccs2)cc1 (centres undefined)
-12.9%,COc1ccc(N2C(=O)c3ccccc3NC2c2cccnc2)cc1 (centres undefined)
-28.9%,CCOc1ccc(NC(=O)NC(=O)N(C)S(=O)(=O)c2ccc(C)cc2)cc1
6.6%,O=C(COC(=O)CSc1ccc(F)cc1)NNC(=O)c1ccc([N+](=O)[O-])cc1

Four of these compounds in a different format:
CCOC(=O)CCc1c(C)c2ccc(OC(C)C(=O)OCC)c(C)c2oc1=O (centres undefined)
  VDR inh = -0.9%

Cc1cccn2c(=O)c(C(=O)NCCc3ccccc3)c(O)nc12
  VDR inh = -3.2%

CCc1c(C#N)c(=O)[nH]c(=O)n1-c1ccccc1
  VDR inh = -5.0%

O=c1[nH]c(C2CCN(S(=O)(=O)c3ccc(C(F)(F)F)cc3)CC2)nc2c1nnn2Cc1ccccc1
  VDR inh = -13.0%

(further entries)
VDR inh,canonical_smiles
-1.9%,N/C(=N\OC(=O)c1ccc(OCC(F)(F)F)nc1)c1ccc(Cl)cc1
-14.7%,CCOC(=O)/C(C#N)=C1/C=CN(c2ccc(C)cc2)C=N1
14.8%,CC1=C(C(=O)Nc2ccc(C)cc2)C(c2ccc(Cl)cc2)n2nnnc2N1 (centres undefined)
-16.1%,CCCC1=NN(C(=O)C(=O)Nc2ccc(Br)cc2)C(O)(C(F)(F)F)C1 (centres undefined)
-19.0%,Cc1ccc(F)c(CNC(=O)C2CCC(=O)N(CCN3CCOCC3)C2)c1F (centres undefined)
1.2%,COC(=O)CCC(=O)Nc1cccc(Br)c1
6.4%,Cc1cnc([N+](=O)[O-])n1CCOC(=O)NC(=O)c1ccc(F)cc1
7.7%,Cc1c(C(=O)N2CCC3(CC2)CC(=O)c2ccccc2O3)cccc1[N+](=O)[O-]
-0.7%,Cc1cc(C)n2nc(SCC(=O)N/N=C/c3ccccc3F)nc2n1
12.9%,CC(=O)O[C@@H](C)C#C[Si](C)(C)c1ccccc1

Other compounds follow:
VDR inh,canonical_smiles
-14.1%,CC1(C)CC(=O)C(Sc2ccccc2[N+](=O)[O-])=C(O)C1
u,O=C(CCSc1ccc(Cl)cc1)N1CCN(S(=O)(=O)c2ccccc2)CC1
-16.0%,N#Cc1c(/N=C/N2CCCC2)oc(-c2ccccc2)c1-c1ccccc1
2.9%,N#Cc1cccc(NC(=O)N2CC[C@@]3(CCCN(C(=O)c4cc(C(F)(F)F)cc(C(F)(F)F)c4)C3)C2)c1
1.7%,CCOC(=O)C(Cc1ccccc1)c1ccnc2ncnn12 (centres undefined)
-9.2%,CCCN(CC1CC1)S(=O)(=O)c1ccc(-n2cnnn2)c(OC)c1
u,CC[C@H](C)[C@@H]1NC(=O)c2cc([N+](=O)[O-])cc(F)c2NCCCC[C@@H](C(N)=O)NC(=O)[C@H](CC(N)=O)NC1=O
-2.6%,CCCC(=O)Nc1nc2ccc(NC(=O)c3c(F)c(F)c(OC)c(F)c3F)cc2s1
-17.2%,C[C@H]1CN(S(=O)C(C)(C)C)[C@H](CCO)/C1=C\CCO (some centres undefined)
13.0%,Nc1nc(O)c2ncn([C@H]3CC[C@@H](CO)O3)c2n1

Next section.
VDR inh,canonical_smiles
-1.9%,Cc1cc(Cn2nc(C(=O)NCC3CC3)cc2-c2ccccc2)on1
-13.5%,CCNC(=O)COC(=O)CCNC(=O)c1cccc(C)c1
7.3%,Cc1ccc(S(=O)(=O)NCCc2cn3ccsc3n2)cc1
21.6%,Cc1onc(-c2c(F)cccc2Cl)c1C(=O)NC1CCSC1=O (centres undefined)
-6.6%,Cc1cc(C)n(-c2nc(SCC(=O)O)c3c4c(sc3n2)COC(C)(C)C4)n1
9.4%,COc1ccc(CCNC(=O)C2CCN(S(=O)(=O)c3ccc(OC)c(OC)c3)CC2)cc1
-14.9%,Cc1nn(C)c(C)c1CNC(=O)Nc1ccc(Cl)cc1
17.6%,O=C(CN1CCN(C(=O)c2cccc(S(=O)(=O)N3CCCC3)c2)CC1)Nc1cccc(F)c1
1.1%,Cc1ccc(S(=O)(=O)/N=C(/Nc2ccc([N+](=O)[O-])cc2[N+](=O)[O-])c2ccccc2)cc1
13.6%,N#Cc1sc2nc3c(c(-c4cccnc4)c2c1N)CCC3

Next entries.
VDR inh,canonical_smiles
-11.5%,COc1ccc(-c2cc(C(=O)Nc3ccc(C)c(N)c3)c3ccccc3n2)cc1
-9.3%,N#CC(c1ccccc1O)N1N=C(c2ccccc2)CC1c1ccccc1 (centres undefined)
10.1%,COc1cc(C(=O)NC2CCN(Cc3nnnn3Cc3cccs3)CC2)cc(OC)c1OC
7.8%,Cc1ccc(C)c(Nc2nc3ccccc3[nH]2)c1
-9.0%,COc1ccc(CCN2CC(O)=C(c3nc4ccccc4c(=O)[nH]3)C2=N)cc1OC
11.0%,Cc1cc(C)c2nc(N(CCCN(C)C)C(=O)c3ccc(S(=O)(=O)N4CCCCCC4)cc3)sc2c1
0.7%,O=C(Cc1ccc(NC(=O)C2CCN(C(=O)C3CCC3)CC2)cc1)Nc1cccc(C(=O)N2CCCCC2)c1
9.5%,CN1CCN(S(=O)(=O)c2ccc(N(C)Cc3cccc(F)c3)nc2)CC1
7.7%,CCN(CC)c1ccc(C2C(C(N)=O)=C(C)Nc3ncnn32)cc1 (centres undefined)
u,COc1ccc2c(c1)CCC1C2=NN(/C(C)=C\C(C)=O)C1c1ccc(F)cc1 (centres undefined)

(next part)
VDR inh,canonical_smiles
4.3%,Cc1ccc(-c2nc(CCNC(=O)C(=O)Nc3ccc(F)cc3F)cs2)cc1
9.8%,COCCOC(=O)N/C=C\c1nc2ccccc2c(=O)[nH]1
-9.3%,COc1ccc(C(=O)N/N=C/c2ccc(OC(=O)c3cccc4ccccc34)c([N+](=O)[O-])c2)cc1
-13.1%,C=CCn1c(SCc2ccc(Cl)c(Cl)c2)nnc1C(CO)NC(=O)c1ccc(OC)cc1 (centres undefined)
-6.2%,CCS(=O)(=O)N1CCCC(C(=O)NCCCN2CCCC2=O)C1 (centres undefined)

Assay outcomes as filed in PubChem BioAssay.

An excerpt. The share of hits here may be higher or lower than overall.
